Bioassay records deposited in PubChem BioAssay by National Center for Advancing Translational Sciences (NCATS).
ClpP mod – qHTS Assay for Activators of ClpP; ATP-dependent Clp protease proteolytic subunit (Bacillus subtilis (strain 168)), P80244; purified B. subtilis ClpP, FRET peptide cleavage, 20 min; Potency, µM (highest dose often 57.5 µM), for inactives: top-dose activity change, negative = active; hit rate 1.9% among 340,000; active = well fitted falling curve with a large enough effect; inconclusive = small, poorly fitted or top-dose-only effect; inactive = no such curve, though single readings can be large or run the other way; further: the source files actives as falling curves though it sought activators and does not explain the sign; nearly all actives have a fitted effect of over 65% in size; many hits overshoot -100%
Target sequence (P80244 whole entry, looked up): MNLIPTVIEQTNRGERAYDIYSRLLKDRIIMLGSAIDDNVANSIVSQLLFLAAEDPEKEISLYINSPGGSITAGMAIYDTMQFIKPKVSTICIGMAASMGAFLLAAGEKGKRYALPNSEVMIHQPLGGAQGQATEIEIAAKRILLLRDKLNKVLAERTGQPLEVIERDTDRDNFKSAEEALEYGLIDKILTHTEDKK
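Purified B. subtilis ClpP, 10 microg/mL final in Tris/HCl pH8 with KCl, BSA, glycerol and Tween-20, cleaved an Abz/nitrotyrosine-quenched decapeptide. Fluorescence (ex 320, em 430) was read at 0 and 20 min at room temperature. Delta was normalized to 5.8 microM ADEP and DMSO/no-enzyme controls.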
PINK1 modulator – A Quantitative High throughput Screen to Identify Chemical Modulators of PINK1 Expression. Potency, µM (titrated, usually from 76.6 µM), for the others: at the top dose activation (PINK1 increase), usual class: activators. AID 624263, 2012. hit rate 0.2% among 410,000. PINK1 immunofluorescence, high-content cytometry, 24 h; active = well fitted activation curve with a large enough effect; inconclusive = small, poorly fitted or top-dose-only effect; inactive = flat fitted curve, though single readings scatter; cell line not stated here;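 further: % of control where 0% means no effect; nearly all actives have a fitted effect of over 65% in size; a mitochondrial uncoupler was the plate control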
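Measures PINK1 amount and localization on or inside mitochondria by immunofluorescence. Stable cells get compounds at 5 concentrations for 24 hours before fixation and staining; CCCP controls included.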
* marks the source's active call; other numbers are inactive results; u = inconclusive. Potency means the concentration at half of the fitted maximal effect.

SMILES	ClpP mod	PINK1 modulator
Cc1ccccc1CN1c2ccccc2-c2nc(SCC(=O)NCc3ccccc3)ncc2S1(=O)=O	31.6µM*	1.2%
COCCCN1C(=O)C(CC(=O)NCCN2CCOCC2)CC(C(=O)N2CCOCC2)=C1C (stereo not given)	1.7%	0.1%
CCCn1c2ccccc2c2cnn(CC(=O)NCCc3cc(OC)ccc3OC)c(=O)c21	u	7.0%
O=C(NCc1ccc(Br)cc1)OC1CC2CC1[C@H]1CCCCN1C2=O (stereo not given in full)	2.5%	0.2%
O=S(=O)(c1cc(Br)c(Br)s1)N1CCN(c2ccccc2)CC1	-2.5%	0.2%
CC1CCN(C(=O)Cn2c(=O)n(CC3CCC(C(=O)NC(C)C)CC3)c(=O)c3sccc32)CC1 (stereo not given)	3.2%	-0.1%
CSc1ccc(C2c3c(oc4ccc(F)cc4c3=O)C(=O)N2c2ccc(C)cn2)cc1 (stereo not given)	1.0%	3.2%
COc1cc(-c2nc(Cn3nnc(C(=O)Nc4cccc(Cl)c4)c3C)c(C)o2)cc(OC)c1OC	3.1%	0.9%
COC(=O)c1c(NC(=O)c2cc(=O)c3c(C)cc(C)cc3o2)sc2c1CCCC2	1.7%	11.1%
Cc1cccc(S(=O)Cc2ccc(C(=O)NC3CCCCCC3)o2)c1 (stereo not given)	-1.1%	-0.4%
Cc1ccc(NC(=O)CSc2nc3ccccc3nc2Cc2ccccc2F)cc1F	-8.1%	u
COC(=O)c1sccc1S(=O)(=O)N(CC(=O)Nc1c(C)cccc1C)c1ccc(C)c(C)c1	0.5%	-0.2%
Cc1cc(NS(=O)(=O)c2ccc3oc(=O)c4ncn(C)c4c3c2)ccc1Br	-0.7%	4.9%
Cc1cn2c(=O)cc(COC(=O)c3cccc(NC(=O)COc4ccccc4C)c3)nc2s1	-8.8%	2.9%
O=C1c2ccccc2C(c2nnnn2Cc2ccccc2)N1Cc1ccc2c(c1)OCO2 (stereo not given)	-3.0%	0.7%
CC1=C(C(=O)OCc2ccc(C)cc2)C(c2cccc(F)c2F)CC(=O)N1 (stereo not given)	-0.3%	6.7%
Cc1cnc(C)cn1	-0.9%	-0.3%
CCOc1ccc(CCNC(=O)c2ccc(CS(=O)(=O)c3ccccc3C)o2)cc1OCC	-3.0%	1.0%
CCOc1ccc(NC(=O)c2cc(C)nc3c2c(C)nn3-c2cccc(F)c2)cc1	-2.0%	-0.1%
O=C1NC[C@H](CCCCN2C[C@H](Cc3ccccc3)N(CCc3ccc(O)cc3)C(=O)C2=O)N(CCc2ccccc2)C1=O	0.5%	-0.6%
CCOC(=O)C1CCCN(S(=O)(=O)c2ccc3[nH]c(=O)oc3c2)C1 (stereo not given)	1.4%	-0.6%
Cc1ccc(-c2cc(C(=O)Oc3ccccc3)c3cc(C)ccc3n2)cc1	1.5%	0.4%
CCOc1ccc(NC(=O)c2c(C)oc3nc(C)nc(N4CCOCC4)c23)cc1	4.1%	u
Cc1ccc(Nc2sc(C(=O)c3ccccc3)c(N)c2S(=O)(=O)c2ccccc2)c(C)c1	-13.9%	3.9%
Cc1cccc(OCc2nc(CC(=O)Nc3ccc(C)c(C)c3)cs2)c1	6.2%	11.3%

Following part:
SMILES	ClpP mod	PINK1 modulator
Cc1cccc(C)c1NC(=O)N1CCC(C(N)=O)(N2CCCCC2)CC1	1.2%	2.6%
CC(C)NC(=O)C1CCCN(S(=O)(=O)c2ccc3c(ccn3C)c2)C1 (stereo not given)	-4.8%	1.0%
CC(=O)Nc1ccc(NC(=O)CSc2nc3ccccc3nc2N2CCOCC2)cc1	0.5%	-0.7%
Cc1ccccc1CN1C(=O)C(O)(CC(=O)c2ccccc2)c2cc(Cl)ccc21 (stereo not given)	-1.6%	3.4%
COc1ccccc1C(=O)N1CCN(Cc2cc(=O)oc3cc(C)ccc23)CC1	-8.5%	-0.2%
COc1ccccc1Cn1c(CNS(=O)(=O)c2ccc(CC(C)C)cc2)nc2cccnc21	-14.3%	4.1%
CCCCOc1cccc(C(=O)Nc2cc3nn(-c4ccc(F)cc4)nc3cc2C)c1	-12.6%	1.4%
COCCN1C(=O)c2oc3cc(C)cc(C)c3c(=O)c2C1c1cccc(O)c1 (stereo not given)	-3.7%	0.6%
CC(=O)N1c2ccc(S(=O)(=O)N3CCN(c4cccc(Cl)c4)CC3)cc2CC1C (stereo not given)	-3.4%	-0.4%
Cc1c2cnn(-c3ccccc3)c(=O)c2c(C)n1C(C)C(=O)Nc1ccccc1C(F)(F)F (stereo not given)	-2.9%	0.6%
CCCOc1ccc(NC(=O)CC2C(=O)N(c3cccc(OC)c3)C(=O)N2CCc2ccncc2)cc1 (stereo not given)	-0.5%	2.2%
O=C(CSCc1ccc(F)cc1)N1CCN(c2ccccc2F)CC1	-1.2%	0.6%
CCc1nn(CC(=O)NCCN(CC(C)C)CC(C)C)c(=O)c2cc3sc(C)cc3n12	-3.2%	-0.2%
CCN(CC)C(=O)c1sc2c(c1C)c(=O)n(-c1ccc(OC)cc1OC)c(=O)n2CC(=O)c1ccc(Cl)cc1	0.9%	1.2%
COc1ccc(C(=O)N2c3ccc(C)cc3C(C)(c3ccccc3)CC2(C)C)cc1 (stereo not given)	-6.1%	0.7%
COC(=O)c1ccc(C(=O)OC)c(NC(=O)N2CC3CCCN3c3ccccc32)c1 (stereo not given)	u	-0.4%
COCCCn1c(=N)c(C(=O)NCC2CCCO2)cc2c(=O)n3cc(C)ccc3nc21 (stereo not given)	4.0%	2.8%
Cc1cc(Cl)ccc1NS(=O)(=O)c1ccc2c(c1)CCN2S(C)(=O)=O	-1.6%	0.3%
COc1ccc(CCN2C(=O)c3oc4cc(C)cc(C)c4c(=O)c3C2c2ccccc2F)cc1OC (stereo not given)	-2.0%	-0.4%
Cc1c(Cl)cccc1NC(=O)Nc1nnc(N2CCCCCC2)s1	-1.6%	-0.2%
CCn1c(=O)n(CC2CCC(C(=O)NC(C)C)CC2)c(=O)c2sccc21 (stereo not given)	-2.1%	1.2%
CC(=O)c1ccc(NC(=O)CN2C(=O)CCc3ccccc32)cc1	0.7%	-1.2%
CCC(C(=O)OC)n1nnc2sc(-c3ccccc3)cc2c1=O (stereo not given)	4.2%	5.7%
Cc1c(C(=O)N2CCC(c3nc4ccccc4s3)CC2)oc2cc(Br)ccc12	-1.0%	2.7%
N#Cc1nc(/C=C/c2ccc(F)cc2)oc1N1CCCCC1	4.0%	0.6%

Laid out differently: results already given
Below each SMILES: ClpP mod, PINK1 modulator
> COC(=O)c1c(NC(=O)c2cc(=O)c3c(C)cc(C)cc3o2)sc2c1CCCC2
 : 1.7%, 11.1%
> Cc1cccc(S(=O)Cc2ccc(C(=O)NC3CCCCCC3)o2)c1 (stereo not given)
 : -1.1%, -0.4%
> Cc1ccc(NC(=O)CSc2nc3ccccc3nc2Cc2ccccc2F)cc1F
 : -8.1%, u
> COC(=O)c1sccc1S(=O)(=O)N(CC(=O)Nc1c(C)cccc1C)c1ccc(C)c(C)c1
 : 0.5%, -0.2%
> Cc1cc(NS(=O)(=O)c2ccc3oc(=O)c4ncn(C)c4c3c2)ccc1Br
 : -0.7%, 4.9%

Next section
SMILES	ClpP mod	PINK1 modulator
CCOc1ccccc1NS(=O)(=O)c1c(C(=O)OC)sc2cccc(F)c12	-3.4%	0.5%
C=Cc1ccc(CN2C(=O)N(c3ccc(CC)cc3)S(=O)(=O)c3ccccc32)cc1	-2.7%	-0.3%
Cc1cc(=O)[nH]c2nnc(SCC(=O)Nc3ccc(F)cc3F)n12	-0.1%	14.1%
COc1ccc(N2CCN(C(=O)C3CCN(S(=O)(=O)c4cnc[nH]4)CC3)CC2)cc1	-8.3%	1.0%
CCCCOc1ccc(CNC(=O)CCCN2C(=O)CSc3c2c(C)nn3-c2ccccc2)cc1	-0.6%	7.9%
CC(C)OCCCn1c(SCC(N)=O)nc2c(sc3ccccc32)c1=O	-12.3%	-1.0%
Cc1ccc(C)c(NS(=O)(=O)c2ccc3c(c2)CCCN3C(=O)C2CCC2)c1	0.0%	0.2%
CCOc1ccc(-n2c(C)nc3c(cnn3-c3ccc(C)cc3)c2=O)cc1	-0.3%	1.0%
N#Cc1ccc(NC(=O)COCc2cc(-c3ccco3)on2)cc1	-0.4%	0.2%
OCc1cnc(SCc2ccc(F)cc2)n1Cc1ccc(F)cc1	-1.9%	-5.2%
Cc1ccc(C)c(NC(=O)N2CCC(N3CCN(Cc4ccc(F)cc4)C(=O)C3=O)CC2)c1	-0.7%	0.7%
Cc1c(C(=O)Nc2cccc(C(F)(F)F)c2)oc2ccc(S(=O)(=O)N(C)C3CCCCC3)cc12	-7.2%	-0.2%
CCN(CC)CC(C)CNC(=O)c1cc(-c2ccc(Br)s2)nc2ccccc12 (stereo not given)	u	0.1%
CCOc1ccccc1N1CC(c2nc3ccccc3n2CCCOc2ccccc2)CC1=O (stereo not given)	-7.7%	0.7%
CCn1c(CN2CCCCC2)nc2cc(NC(=O)COc3cc(C)ccc3C(C)C)ccc21	-1.4%	0.8%
CCOC(=O)N1CCc2c(sc3c2c(=O)n(CCc2ccccc2)c(=O)n3Cc2ccc(C)cc2C)C1	-4.0%	1.6%
COc1ccc(NC(=O)CSc2c(C(C)C)cnc3c2c(=O)n(C)c(=O)n3C)c(OC)c1	0.5%	1.1%
COc1ccc(OC)c(NC(=O)CSC2=Nc3ccccc3C3=NC(CC(=O)NCc4ccc5c(c4)OCO5)C(=O)N23)c1 (stereo not given)	-3.3%	5.7%
Cc1ccc(-c2nc(S(=O)(=O)c3ccc(F)cc3)c(N3CCN(c4ccccc4)CC3)o2)cc1	-4.2%	0.7%
Cc1cc(C)cc(NS(=O)(=O)c2ccc3[nH]cc(C(=O)N4CCCCCC4)c(=O)c3c2)c1	u	1.6%
CCOC(=O)c1cc(-c2ccccc2)n(-c2cccc(C(=O)Nc3ccc(OCC)cc3)c2)c1C	-11.6%	1.9%
CCOC(=O)c1ccc(N2C(=O)c3n[nH]c(C)c3C2c2ccc(CC)cc2)cc1 (stereo not given)	2.3%	9.7%
COc1cccc(CNC(=O)[C@@H]2CCCN2C(=O)[C@@H]2CCCN2C(=O)c2cccs2)c1	-0.1%	-1.1%
COc1ccccc1CNc1nccn(-c2ccc(F)cc2)c1=O	-7.7%	-0.9%
CCOc1ccc(NC(=O)CSc2nnc(CC)c(CC)n2)cc1	-0.1%	1.1%

(more compounds)
SMILES	ClpP mod	PINK1 modulator
CCOC(=O)c1c(C)oc2nc(C)nc(NCc3cccc(Cl)c3)c12	-1.4%	0.7%
CC(=O)N1CCc2c(sc3c2c(=O)n(-c2ccccc2)c(=O)n3CC(=O)Nc2ccccc2)C1	-0.2%	0.5%
O=c1cc(-c2ccccc2)c2cc(Cl)c3c(c2o1)CN(Cc1ccccc1)CO3	-5.3%	0.9%
Cc1c(C(=O)N2CCCC2)oc2c1-c1nn(CC(=O)NCc3ccccc3Br)cc1CC2	-1.9%	0.1%
Cc1nc2c(c(C)c1CCC(=O)N1CCN(c3ccccc3)CC1)c(=O)n(C)c(=O)n2C	-5.1%	2.3%
Cc1ccc2onc(CC(=O)N(C)c3ccccc3)c2c1	1.6%	0.6%
Cc1ccc(C)c(Oc2nc3c(c(=O)n(C)c(=O)n3C)n2Cc2ccccc2)c1	-0.9%	-0.3%
CCc1c(C)nc2nncn2c1Nc1ccc(C)c(F)c1	-1.9%	-2.2%
Cc1ccc(Nc2nc(C)nc(N)c2S(=O)(=O)c2ccccc2)cc1	-2.0%	-1.7%
COc1ccc(-c2nc(SCC(=O)NCc3nc4ccccc4n3C)n3[nH]c(=O)cc3n2)cc1	4.7%	1.8%
Cc1ccccc1C1CC(=O)Nc2ccc3ccccc3c21 (stereo not given)	5.2%	7.4%
CCN(C(=O)Cn1c(C(=O)OC)cc2sc(Cl)cc21)c1cccc(C)c1	-1.6%	-0.6%
Cc1ccc(NC2=C(c3ccc(C(F)(F)F)cc3)C(=O)c3ccccc32)cc1C	-16.3%	3.4%
Cc1ccc(Nc2c(-c3ccccc3O)nc3cc(C)ccn23)cc1	28.2µM*	2.2%
CCS(=O)(=O)N1CCc2cc(C(=O)Nc3cccc(C(C)=O)c3)ccc21	1.0%	1.5%
C=Cc1ccc(Cn2c(C(=O)O)c(CNCc3cccs3)c3ccc(C)cc32)cc1	-8.7%	-1.1%
Cc1c(Cl)cccc1N1C(N)=C(C#N)C(c2cc(CN3CCOCC3)cs2)C2=C1CCCC2=O (stereo not given)	-6.7%	1.5%
COc1ccc(C(=O)c2oc3ccccc3c2NC(=O)COc2c(C)cc(C)cc2C)cc1	u	1.2%

Full records as entered above. Screens in order: ClpP mod, PINK1 modulator
`CCc1c(C)nc2nncn2c1Nc1ccc(C)c(F)c1` as listed: -1.9%, -2.2%
`CC(=O)N1CCc2c(sc3c2c(=O)n(-c2ccccc2)c(=O)n3CC(=O)Nc2ccccc2)C1` as listed: -0.2%, 0.5%
`CCOC(=O)c1c(C)oc2nc(C)nc(NCc3cccc(Cl)c3)c12` as listed: -1.4%, 0.7%
`Cc1ccc(C)c(Oc2nc3c(c(=O)n(C)c(=O)n3C)n2Cc2ccccc2)c1` as listed: -0.9%, -0.3%
`Cc1ccc(Nc2nc(C)nc(N)c2S(=O)(=O)c2ccccc2)cc1` as listed: -2.0%, -1.7%

These rows are one share of the data; the hit share may differ from the screen's.
